VACV Venus inh = inhibitors of vaccinia virus (Venus reporter); Vaccinia virus Venus reporter expression, fluorescence; Potency, µM (doses to about 36.5 µM), inactives show at the highest dose activity change, negative = inhibition, most hits filed as inhibitors; 330,000 tested, 0.46% active; AID 720580; active means well fitted inhibition curve with a large enough effect; inconclusive means small, poorly fitted or top-dose-only effect; inactive means no such curve, though single readings can be large or run the other way; tested in A549 cells; also: nearly all actives have a fitted effect of over 30% in size; inactives centre near -10
Vaccinia mCherry = vaccinia inhibition (mCherry reporter). Vaccinia virus mCherry reporter infection, fluorescence; about a quarter of the inactives have no number. Potency, µM (series often up to 36.5 µM), inactives show at the highest dose activity change, negative = inhibition, usual class: inhibitors. 310,000 tested, 0.63% active. AID 720579; active = well fitted inhibition curve with a large enough effect; inconclusive = small, poorly fitted or top-dose-only effect; inactive = no such curve, though single readings can be large or run the other way; tested in A549 cells; also: nearly all actives have a fitted effect of over 35% in size; inactives centre near -10
* marks the source's active call; other numbers are inactive results; i = inactive; u = inconclusive; x = no result given; & = joins results of further samples; [ ] = dose if it differs, or a comment. % is scaled to controls: 0 for no effect and ±100 for the full control effect; potency is read from the fitted curve at half-maximal effect.

Screens in order – VACV Venus inh | Vaccinia mCherry
> CCOC(=O)C1=C(C)c2ccccc2OC1(C)C(=O)OCC (stereo not given)
→ -15% | -15%
> CCc1ccc(Sc2cc(C(=O)NCCN3CCOCC3)c3ccccc3n2)cc1
→ -18% | -13%
> Cc1cc(Nc2cc(F)ccc2C)n2nc(C)nc2n1
→ -13% | -5%
> COc1ccc(S(=O)(=O)N2CCOC2CNC(=O)C(=O)NCc2ccc(F)cc2)cc1 (stereo not given)
→ -23% | -10%
> CC(C)=C(NC(=O)c1ccccc1)C(=O)NC(Cc1ccccc1)C(=O)O (stereo not given)
→ 0% | i
> Cc1ccc(N(C)S(=O)(=O)c2cccc(C(=O)Oc3ccc4c(C)cc(=O)oc4c3)c2)cc1
→ -4% | -10%
> Cc1ccc(Cn2nnnc2CN2CCC(NC(=O)c3ccccc3F)CC2)cc1
→ -8% | i
> CCN(CC)CCNc1nc2ccccc2n1C
→ -12% | -6%
> CCCn1nc(C(=O)OCn2nnc3ccccc3c2=O)c2ccccc2c1=O
→ -2% | -11%
> COc1ccccc1N1CCN(C2CCCC(C)C2)CC1 (stereo not given)
→ -3% | i

Complete entries from above.
COc1ccc(S(=O)(=O)N2CCOC2CNC(=O)C(=O)NCc2ccc(F)cc2)cc1 (stereo not given) in the list: VACV Venus inh: -23%; Vaccinia mCherry: -10%
Cc1cc(Nc2cc(F)ccc2C)n2nc(C)nc2n1 in the list: VACV Venus inh: -13%; Vaccinia mCherry: -5%

(more compounds)
Screens in order – VACV Venus inh | Vaccinia mCherry
> Cc1ccc(SC/C(O)=C(\C#N)c2nc3ccccc3n2C)cc1
→ -25% | x
> CC(=O)N=c1n(C)c2ccccc2n1CCOc1ccccc1
→ 1% | -15%
> CSc1cccc(NC(=O)C(c2ccccc2)N2Cc3ccccc3C2=O)c1 (stereo not given)
→ 4% | -7%
> O=[N+]([O-])c1ccc2c(c1)-c1ccccc1C2=NO
→ -20% | -15%
> CC(C)N1C(=S)SC(C)(C)C1NO (stereo not given)
→ u | x
> COc1ccccc1CCNC(=O)Cc1c(C)c2c(O)cc(C)cc2oc1=O
→ 9% | 4%
> Cc1ccc2cc(CN(CC3CCCO3)C(=S)NCc3ccco3)c(=O)[nH]c2c1C (stereo not given)
→ -11% | -19%
> CCc1ccc(-n2nc(C)c3c(C(=O)N4CCN(c5ccccc5)CC4)cc(C)nc32)cc1
→ -26% | -22%
> Cc1cc2nc(-c3ccc(SCc4ccc(C#N)cc4)nc3)[nH]c2cc1C
→ -14% | -17%
> Cc1[nH]c2ccccc2c1C(=O)CN1C(=O)C(=O)N(C2CCCC2)C1=O
→ -29% | -12%
> COc1ccc(C(N)c2csc(Nc3nncc4ccccc34)n2)cc1 (stereo not given)
→ -4% | 34%[activator]
> O=c1cnnc(Nc2cccc(F)c2)[nH]1
→ -6% | u
> Cc1cc(N)ccc1-n1c(C)ccc1C
→ 6% | 18%
> CN1CC(C(=O)c2ccc(Cl)cc2)C(c2ccc(Cl)cc2Cl)C1 (stereo not given)
→ -8% | u
> COc1ccc(C2C(C(=O)Nc3cccnc3)=C(C)Nc3nc(-c4ccccc4)nn32)cc1OC (stereo not given)
→ 4% | 3%
> CC(C)CN1C(=O)C(=O)N(CC(=O)N2CCC(Cc3ccccc3)CC2)C1=O
→ -10% | -21%
> CC(=O)N1CCc2c(sc3c2c(=O)n(-c2cc(Cl)ccc2C)c(=O)n3Cc2ccccc2F)C1
→ -13% | i
> CCOc1ccc(C(=O)c2oc3ccccc3c2NC(=O)Cc2coc3ccc(CC)cc23)cc1
→ -5% | -12%
> O=C(COc1ccccc1)Nc1ccc2c(c1)C(=O)N(CC1CCCO1)C2=O (stereo not given)
→ 4% | 0%
> CCCNC(=O)C1CCN(S(=O)(=O)c2ccc3c(c2)CCCN3C(C)=O)CC1
→ 1% | 4%
> COc1ccccc1CNC(=O)COC(=O)c1ccc(Cl)c(N)c1
→ -19% | -6%
> Cc1cccc(C(=O)NNC(=S)NC(=O)c2cccs2)c1
→ u | u
> O=c1cc(CN2CCC(Cc3ccccc3)CC2)nc2sccn12
→ -14% | -8%
> COc1cc2c(cc1OC)C1[C@H]3C(=CC[C@H]1OC2O)CCN3C (stereo not given in full)
→ -10% | i
> COCCNc1nc(NCC2CCCCC2)c2sc(-c3ccccc3)cc2n1
→ -16% | 1%
> CCOC(=O)C1CCN(C(=O)C2COc3ccccc3O2)CC1 (stereo not given)
→ -9% | -3%
> Cc1cccc(C)c1NC(=O)CN1CCN(c2ccc(F)cc2)CC1
→ 10% | 40%[activator]
> CCN1c2ccccc2NC2C1C(C(C)=O)C(=O)N2c1ccc(Cl)cc1 (stereo not given)
→ 25% | -3%
> COc1ccc2[nH]c(=O)c(CN(CC3CCCO3)C(=O)Nc3ccccc3OC)cc2c1 (stereo not given)
→ u | u
> COc1ccc2[nH]cc(CC(=O)O)c2c1
→ -4% | -5%
> Cc1sc(NC(=O)c2ccc(OCC(C)C)cc2)c(C(N)=O)c1-c1ccc(Cl)cc1Cl
→ -10% | i
> O=C(O)CCC(NC(=O)C1CCCN1C(=O)OCc1ccccc1)C(=O)O (stereo not given)
→ -22% | i
> COc1ccc(NS(=O)(=O)c2ccc(NC(=S)NC(=O)CC(C)C)cc2)cc1
→ -28% | x
> CO[C@@H]1CN(C)C(=O)c2cc(NC(=O)Nc3cc(F)ccc3F)ccc2OC[C@H](C)NC[C@@H]1C
→ -7% | 10%
> CCCCN(C)CCCNC(=O)c1cc(-c2cccs2)nc2ccccc12
→ -18% | -11%
> O=C(NCCc1c[nH]c2ccccc12)C1CCN(S(=O)(=O)c2ccccc2F)CC1
→ -11% | i
> CCOC(=O)[C@]12CCCC=C1N(Cc1ccccc1)C(=O)[C@H](CC(=O)NCCCCc1ccccc1)C2
→ u | u
> CN1OC[C@@H]2CN(C(=O)C(C)(C)C)[C@H](c3cccc(N4CCOCC4)c3)C[C@@H]21
→ -4% | -16%
> Cc1ccc(-c2nc(-c3nccc4ccccc34)oc2-c2ccccc2)cc1
→ -4% | -29%
> O=C(Nc1cccc(C(F)(F)F)c1)c1cccc(C(=O)Nc2cccc(C(F)(F)F)c2)c1
→ -26% | -24%
> COC(=O)c1cc(-c2ccccc2)on1
→ -10% | -1%
> CCCCOC(=O)CN1C(=O)c2ccc(C(=O)OCCCC)cc2C1=O
→ -10% | x
> CCOc1ccc(C(=O)NCC(=O)OCc2c(C)noc2C)cc1
→ -6% | i
> Cc1ccc(S(=O)(=O)N2CCOCC2)cc1C(=O)NCC1CCCCC1
→ 1% | i
> OC(c1ccccc1)(c1nc(-c2ccc3ccccc3c2)cs1)C(F)(F)F (stereo not given)
→ 8% | -15%
> CCN1C(=O)[C@@H]2[C@@H](c3ccc(-c4cccc(Cl)c4)c(OC)c3)N3CCCC[C@@]3(C(=O)OC)[C@@H]2C1=O
→ -17% | -20%
> C=CC[C@H](CC(=O)N(CCO)Cc1ccccc1)C(=O)N[C@@H](COC(=O)[C@@H](CC=C)CC(=O)OC(C)(C)C)Cc1c[nH]c2ccccc12
→ 11µM* | u
> CCOc1ccc(NC(=O)C2CCN(S(=O)(=O)c3c(C)noc3/C=C/c3ccco3)CC2)cc1
→ -16% | -19%
> CCOC(=O)C(=O)Nc1nnc(C2CCCCC2)s1
→ -21% | i
> COC(=O)[C@@H](NC(=O)NCCC1=CCCCC1)C(C)C
→ -7% | -1%

Further records.
Screens in order – VACV Venus inh | Vaccinia mCherry
> CCCc1cc(-n2ccnc2)n2c(nc3ccccc32)c1C#N
→ 152%[activator] | x
> Cc1ccc(NC(=O)CCNS(=O)(=O)c2ccc(OC(F)(F)F)cc2)c(O)c1
→ -15% | -7%
> O=C(COc1ccc(Cl)cc1)Nc1ccc2c(c1)nc1n2CCOC1
→ -5% | i
> COc1cccc(C(=O)N2CCC[C@H]2C(=O)N2CCC[C@H]2C(=O)NCc2ccccn2)c1
→ 7% | 8%
> COc1ccc(N2CCN(S(=O)(=O)c3cccc4nsnc34)CC2)cc1
→ -7% | -20%
> COc1ccc(NC(=O)C[C@H]2C(=O)N(Cc3ccccc3)C[C@@H]2Cc2ccccc2)cc1
→ u | -29%
> O=C(OC(C(=O)NCc1cccs1)c1ccccc1Cl)c1ccco1 (stereo not given)
→ -10% | -21%
> Cc1ccc(COC(=O)CCCN=C2NS(=O)(=O)c3ccccc32)cc1
→ -6% | -16%
> O=c1cc(-c2ccc(F)cc2)oc2ccccc12
→ -6% | -2%
> CN1c2ccccc2C(=O)/C(=C\Nc2ccc(F)cc2F)S1(=O)=O
→ -2% | i
> CC(NC(=O)CC(c1ccccc1)c1cc(Cl)ccc1O)c1ccccc1 (stereo not given)
→ u | u
> Cc1ccc(N(C(=O)Cn2nnc3ccccc32)C(C(=O)NCc2ccccc2)c2ccccn2)cc1 (stereo not given)
→ -8% | i
> C=CCn1c(C)c(/C=C/c2cc[n+](C)cc2)c2ccccc21
→ 161%[activator] | -7%
> Cc1ccc(O)c(Nc2c3ccccc3nc3ccccc23)c1
→ u | u
> O=C(Cc1cccs1)N/N=C/C=C/c1ccccc1
→ -4% | -3%
> CN(C(=O)CCn1c(=S)oc2ccccc21)c1ccc(F)cc1
→ -19% | -2%
> COc1ccccc1CNC(=O)C1CCN(S(=O)(=O)Cc2ccccc2)CC1
→ -2% | -5%
> O=C1CCN(Cc2ccc(O)cc2)CCN1[C@H](CO)Cc1ccccc1
→ -5%&-9% | -1%&-20%
> Cc1ccc2c(c1)c(=O)c1ccccc1n2CCCC(=O)Nc1ccc(F)cc1F
→ -24% | i
> CC1(C)OC(=O)C(=CNCCc2ccc(O)cc2)C(=O)O1
→ 9% | i
> CCOC(=O)c1noc2nc(C)n(CC(=O)Nc3ccc(Br)cc3C)c(=O)c12
→ -7%[7.34 µM] | -16%
> COc1ccc(S(=O)(=O)N2CCN(Cc3ccc4c(c3)OCO4)CC2)cc1OC
→ -2% | 7%
> Cc1ccc([N+](=O)[O-])cc1NC(=O)CN(c1ccccc1)S(=O)(=O)N(C)C
→ -5% | -17%
> CCCCN(CC)S(=O)(=O)c1ccc(C(=O)N=c2sc3cc(NC(C)=O)ccc3n2C)cc1
→ -13% | -1%
> CCc1ccc(NC(=O)Cn2nc(C(F)(F)F)c3c2CCC3)cc1
→ -17% | -18%
> Cc1ccc(C)c(N2CCN(C(=O)C3CCCN(S(=O)(=O)c4cccc5nsnc45)C3)CC2)c1 (stereo not given)
→ -23% | u
> Cc1ccc(NC(=O)/C=C/C(=O)O)c([N+](=O)[O-])c1
→ -4% | -18%
> O=C1NCCO1
→ -13% | i
> CCOc1ccccc1NC(=O)c1c(Br)cnn1C
→ -7% | i
> CN(Cc1cn(-c2ccccc2)nc1-c1ccc(F)cc1)C(=O)CCC(=O)O
→ -7% | -9%
> CC(=O)Nc1ccc(-c2csc(NCc3ccccc3)n2)cc1
→ -15% | -30%
> O=C(Nc1ccc2ccccc2c1)C(C1CC1)n1c(=O)c(-c2cc3ccccc3[nH]2)nc2ccccc21 (stereo not given)
→ -28% | u
> O=C(Nc1ccc(-c2cn3ccsc3n2)cc1)C1CCCC1
→ u | u
> Cc1cc(C)n(C(=O)CN2C(=O)COc3ccccc32)n1
→ -5% | -5%
> CC(C)(C)Cc1nnc(NS(=O)(=O)c2ccccc2)s1
→ -5% | -7%
> CCC(C)C(=O)OC1C2CC3=C4CC(=O)OC(c5ccoc5)[C@]4(C)CCC3[C@@](C)(C2=O)C(CC(=O)OC)C1(C)C (stereo not given in full)
→ -3% | -9%
> COc1cccc(Nc2ccc([N+](=O)[O-])c3nonc23)c1
→ -12% | u
> COc1ccc(Br)cc1CN(C)C(=O)c1ccccc1SCC(=O)N1CCCC1
→ -26% | i
> Cc1cc2ncn(C(=O)N3CCCC3)c2cc1C
→ -9% | -2%
> CN(C(=O)COc1ccc(Br)cc1Cl)C1CCCCC1
→ -2% | -4%
> Cc1cccc(CC2S/C(=N/N=C/c3ccco3)N(c3ccccc3)C2=O)c1 (stereo not given)
→ -15% | i
> O=[N+]([O-])c1ccc(NN=CCCc2ccccc2)nc1
→ -13% | -19%
> Cc1ccc(NS(=O)(=O)c2ccc3[nH]c4c(c3c2)CCCCCC4)cc1
→ -18% | -23%
> CC1CCN(S(=O)(=O)c2cccc(C(=O)N(Cc3ccccc3)c3ccccn3)c2)CC1
→ 5% | -3%
> O=C(O)CC1c2ccccc2S(=O)(=O)N1Cc1ccccc1 (stereo not given)
→ -10% | -12%
> Cc1cnc(CNc2ccnc(-c3ccccc3Cl)n2)cn1
→ -1% | -5%
> CC1CN1c1cc2c(c3c1ccn3C)C1CCC2C1 (stereo not given)
→ u | u
> O=C(NCc1ccc2c(c1)OCO2)C1CC(c2ccc(Cl)c(Cl)c2)=NO1 (stereo not given)
→ u | u
> COc1ccc(C(=O)/C=C/NCc2ccc(F)cc2)cc1OC
→ -3% | 3%
> CCCc1cc(=O)[nH]c(SCC(=O)NCCC2=CCCCC2)n1
→ 5% | 2%
> Fc1ccc(Cn2cccc2C2=NC(c3ccccc3)CO2)cc1 (stereo not given)
→ 0% | -2%
> COc1ccc(-n2c(SCC(=O)N3CCN(c4ccccc4)CC3)nc3c(c2=O)SCC3)cc1
→ u | -19%

4 compounds drawn at random from those above:
Screens in order – VACV Venus inh | Vaccinia mCherry
> CC1CCN(S(=O)(=O)c2cccc(C(=O)N(Cc3ccccc3)c3ccccn3)c2)CC1
→ 5% | -3%
> COc1ccc(C(=O)/C=C/NCc2ccc(F)cc2)cc1OC
→ -3% | 3%
> Fc1ccc(Cn2cccc2C2=NC(c3ccccc3)CO2)cc1 (stereo not given)
→ 0% | -2%
> Cc1cnc(CNc2ccnc(-c3ccccc3Cl)n2)cn1
→ -1% | -5%
